RanGTP-Imp inh = inhibitors of RanGTP-importin-beta interaction, primary screen, biochemical, FRET, CFP-Ran, YFP-importin-beta, homogeneous; 300,000 tested, 1.1% active; AID 2216; inhibition, % (test concentration not listed); cell-free CFP-Ran/YFP-importin-beta FRET ratio;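 active means most replicates above 15%; inconclusive means exactly half above 15%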;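 further: 0% = DMSO wells and 100% = Ran loaded with GDP instead of GTP; wells of about 40 µL received 100 nL stock; the first replicate is given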
LANA-H2A inh = blocks KSHV LANA binding to histone H2A/H2B; Q9QR71; cell-free LANA-H2A/H2B peptide, fluorescence polarization; inhibition, % (test concentration not listed); 320,000 tested, 0.6% active; in the data active means inhibition mostly above about 10%, no sharp cut-off; inactive means mostly below about 6.7%;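 further: stock transfer was 7.5 nL into about 10 µL; 0% = median of vehicle wells and 100% = median of positive control wells; one replicate is shown; the record names a cut of 25% in any replicate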
A1 inh = inhibitors of the anti-apoptotic protein A1, read as caspase activation; MEF A1-2A-BIM cells, Caspase-Glo 3/7 luminescence, 3 h; percent of clofoctol response, vehicle zero; caspase activation, % (no concentration beside the values); 330,000 tested, 0.066% active; AID 2462;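 active means over half of replicate activation scores above 10%, or exactly half above 10 with the replicate mean above 10; inconclusive means replicate mean below 10 yet half the replicates above 10; inactive means over half of replicates below 10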;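 further: wells of about 30 µL received 50 nL stock; many hits fall short of the cut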
T cruzi repl = blocks replication of Trypanosoma cruzi; 300,000 tested, 1.4% active; T. cruzi beta-gal in NIH3T3, luminescence, 90 h; inhibition, % (no concentration beside the values);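 active means mean inhibition across valid replicates above about 55%, limit read from the data; inconclusive means mean below that limit but half or more replicates reach it; inactive means mean below it, under half of replicates reach it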;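 further: signal also drops with host cell toxicity which is not excluded here; 0% = plate median of DMSO wells and 100% = zero luminescence signal; higher percent means less beta-gal luminescence so fewer parasites; stock transfer was 50 nL into about 50 µL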
Calb FLC = affects C. albicans growth with fluconazole; growth inhibition, % (no concentration beside the values); 300,000 tested, 0.57% active; AID 1979; C. albicans CaCi-2 (fluconazole-resistant clinical isolate) + fluconazole, Alamar Blue growth, 48 h;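 active means most replicates above 75%; inconclusive means exactly half above 75%; inactive means most below 75%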;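 further: all wells also contain fluconazole at 8 µg/ml as a sub-toxic cotreatment; 0% = median of DMSO wells and 100% = median of geldanamycin control wells; wells of about 8 µL received 7.5 nL stock; the first replicate is given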
UCH37 DUB inh = blocks the human deubiquitinase UCH37 | purified proteasome/UCH37, Ub-AMC cleavage fluorescence | inhibition, % (no concentration beside the values) | 330,000 tested, 0.33% active;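 active means mean of two replicates above 20%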;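 further: 0% = compound-free wells with enzyme and 100% = wells lacking proteasome; stock transfer was 100 nL into about 20 µL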
Target sequence (Q9Y5K5 whole entry, looked up): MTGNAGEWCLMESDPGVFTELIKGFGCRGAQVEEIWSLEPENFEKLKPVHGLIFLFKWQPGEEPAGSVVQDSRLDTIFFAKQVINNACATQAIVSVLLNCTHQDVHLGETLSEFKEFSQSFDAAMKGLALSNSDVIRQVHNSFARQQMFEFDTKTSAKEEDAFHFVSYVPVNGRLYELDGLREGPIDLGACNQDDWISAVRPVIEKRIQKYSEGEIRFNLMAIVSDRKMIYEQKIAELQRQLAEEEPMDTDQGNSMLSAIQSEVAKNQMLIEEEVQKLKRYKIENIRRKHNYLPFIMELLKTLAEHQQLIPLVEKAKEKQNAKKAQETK
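Material: Human UCH37 enzyme supplied as purified proteasome complex | Schedule: 30 min preincubation with enzyme, 25 min cleavage at room temperature | Detection: AMC fluorescence 355/460 nm | Measure: % inhibition of Ub-AMC cleavage fluorescence | Controls: Wells without proteasome as full block, compound-free enzyme plus substrate as uninhibited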
Beta apoptosis = blocks beta cell apoptosis. INS-1E cytokine-induced death, ATP luminescence, 48 h; percent of positive-control rescue, neutral wells zero. protection from apoptosis, % (test concentration not listed). AID 435005. 300,000 tested, 0.8% active;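 active means all replicates at 75% or more, or half of them and the mean; inconclusive means half reach 75% but not the mean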;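 further: 0% = cytokine-treated negative control wells and 100% = positive control rescue; higher means more ATP so stronger rescue from cytokine killing; wells of about 40 µL received 100 nL stock; the first replicate is given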
Beta2AR agonist = human beta-2 adrenergic receptor agonism by FAP | P07550 | Am2.2-beta2AR cells, FAP receptor internalization, flow cytometry; reference of the scale not given here | response, % (no concentration beside the values) | 340,000 tested, 0.43% active;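 active means response above a set limit, near 3 SD of response in nonfluorescent compounds, cut at about 42% in these data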;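 further: stock transfer was 100 nL into about 11 µL; a reference agonist was the positive control; negative values mostly stem from fluorescent compounds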
Target sequence (P07550 whole entry, looked up): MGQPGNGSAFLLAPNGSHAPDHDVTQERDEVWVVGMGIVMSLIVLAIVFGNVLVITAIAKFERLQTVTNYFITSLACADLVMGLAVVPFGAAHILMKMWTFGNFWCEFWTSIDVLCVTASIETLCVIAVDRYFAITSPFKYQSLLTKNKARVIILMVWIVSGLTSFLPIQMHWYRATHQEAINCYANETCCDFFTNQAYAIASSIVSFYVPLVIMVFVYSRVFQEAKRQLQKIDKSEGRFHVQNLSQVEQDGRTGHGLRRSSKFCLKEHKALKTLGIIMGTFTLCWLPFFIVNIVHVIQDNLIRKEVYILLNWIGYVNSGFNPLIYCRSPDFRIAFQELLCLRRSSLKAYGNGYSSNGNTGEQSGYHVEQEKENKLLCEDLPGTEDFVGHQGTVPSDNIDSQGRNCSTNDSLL
* hit, by the source's call; i = inactive; ? = inconclusive; · = not tested or not shown.

SMILES	RanGTP-Imp inh	LANA-H2A inh	A1 inh	T cruzi repl	Calb FLC	UCH37 DUB inh	Beta apoptosis	Beta2AR agonist
O=C(CCSc1ccccc1)NC(=O)COC(=O)c1ccc(OC(F)F)cc1	·	-6.8	-0.1	-15	·	1.3	2	-1
Cc1ccc(NC(=O)CCn2c(=O)oc3ccccc32)cc1	-4.0	3.0	-0.6	-6	11	5.4	2	-7
Cc1cc(C)c(N)cc1C	·	i	1.2	·	·	0.8	-6	-3
O=C(c1ccco1)N1CCN(C(=O)c2cnn3cccnc23)CC1	-0.5	0.9	-0.8	1	24	-47	1	-2
CC1CCc2nn(CC(=O)NCCC3=CCCCC3)cc2C1 (configuration not stated)	-4.3	7.5	0.9	-2	5	0.7	1	-3
CCCCCCCCOc1ccc(C(=O)O)cc1	·	112*	0.1	·	·	·	0	0
O=S(=O)(NCc1ccc2c(c1)OCO2)c1cccc2cccnc12	6.0	-2.1	0.8	-2	0	0.5	-2	-7
CC1CC(C)CN(S(=O)(=O)c2cccc3nonc23)C1 (configuration not stated)	2.1	-3.3	0.4	10	1	1.3	0	2
Cc1ccc(N2CC(C(=O)Nc3nnc(SCc4cccnc4)s3)CC2=O)cc1 (configuration not stated)	-1.7	-1.2	0.6	-10	3	0.3	0	-2
CN(C)C=NC(=O)/C(C#N)=C/c1ccccc1	5.3	2.6	0.1	-7	4	-0.1	0	5
CCCn1c(N)c(C(=O)COC(=O)c2cccc(S(=O)(=O)N3CCOCC3)c2)c(=O)[nH]c1=O	·	3.6	-1.0	·	·	1.2	1	-4
CCSc1nnc(NC(=O)COc2cccc3ccccc23)s1	-0.9	0.2	-0.4	-29	15	3.6	-5	-3
Cc1cc(C(=O)N2CCCC(C(=O)c3cccc(C(F)(F)F)c3)C2)nc(C)n1 (configuration not stated)	-2.6	14*	-0.5	3	4	·	-3	-2
CCOc1ccc(S(=O)(=O)NN=C2CCN(C(C)=O)CC2)cc1	4.7	2.6	1.0	-8	4	0.7	-4	3
O=C(Nc1cccc(-c2csc(Nc3ccc(Cl)cc3)n2)c1)c1ccccc1	0.2	-1.7	0.7	30	0	0.7	27	9
CC(=O)Nc1ccc(CN2CCN(CCC(C)C)C(CCO)C2)cc1 (configuration not stated)	1.3	-4.3	-1.1	-2	10	0.6	2	0
FC(F)(F)c1cccc(N2CCN(CC3CC=CCC3)CC2)c1 (configuration not stated)	7.4	-3.0	-0.7	19	-9	-7.1	3	-1
COc1ccc(OCC(=O)Nc2ncc3c(n2)CC(C)(C)CC3=O)cc1	1.3	0.1	1.2	-3	?	3.7	-1	2
Cc1ccc2nc(SCC(=O)N3CCN(C(=O)c4ccco4)CC3)[nH]c2c1	2.5	0.2	0.3	-26	21	0.1	-6	0
CCCc1cc(=O)[nH]c(SCc2cc(=O)oc3c(C)c(C)ccc23)n1	-0.7	0.7	1.8	3	31	1.2	-6	-3

Limited to Beta2AR agonist, T cruzi repl and LANA-H2A inh, for three of the compounds above:
Structure	Beta2AR agonist	T cruzi repl	LANA-H2A inh
CCCn1c(N)c(C(=O)COC(=O)c2cccc(S(=O)(=O)N3CCOCC3)c2)c(=O)[nH]c1=O	-4	·	3.6
CCSc1nnc(NC(=O)COc2cccc3ccccc23)s1	-3	-29	0.2
Cc1cc(C(=O)N2CCCC(C(=O)c3cccc(C(F)(F)F)c3)C2)nc(C)n1 (configuration not stated)	-2	3	14*

Following part
SMILES	RanGTP-Imp inh	LANA-H2A inh	A1 inh	T cruzi repl	Calb FLC	UCH37 DUB inh	Beta apoptosis	Beta2AR agonist
NC(=NCc1ccco1)NC(=O)c1ccc(Cl)cc1	7.3	-7.4	0.9	-3	-9	-0.5	1	5
CC(=O)Nc1ccc(S(=O)(=O)NCC(=O)NCCc2ccc(S(N)(=O)=O)cc2)cc1	1.7	-4.1	0.4	-54	0	3.5	-4	7
COC(=O)c1ccc(OC(=O)CCN2c3ccccc3Sc3ccccc32)cc1	1.3	3.8	-0.2	-17	-10	3.0	3	-5
O=C(COC(=O)CNS(=O)(=O)c1ccc(F)c(F)c1F)NCCc1ccccc1	1.8	-7.3	-0.1	-10	5	0.7	-2	4
COc1ccccc1CNC(=O)C1CC(c2ccccc2[N+](=O)[O-])=NO1 (configuration not stated)	0.0	-3.2	0.8	-29	-2	2.6	2	-4
CC(NCCC(c1ccccc1)c1ccccc1)c1ccccc1 (configuration not stated)	-1.2	-2.2	0.5	15	·	-0.3	19	25
O=C(O)c1cccc(-n2nnnc2SCc2ccccc2Cl)c1	-3.2	1.4	-0.6	-10	-14	0.0	-4	-3
CO/N=C/c1cccn1-c1nccc(OC)c1C#N	-0.1	2.6	1.1	-22	?	·	-3	-2
CCC(CO)Oc1cc(NCc2ccc(O)cc2)c2ncn(C(C)C)c2c1 (configuration not stated)	·	0.5	0.4	·	·	0.9	2	-3
CCn1c(SCc2nc3ccccc3c(=O)[nH]2)nnc1-c1ccncc1	0.9	2.0	-0.4	-2	-3	2.6	-1	-2
CN(C)C(C)(C)C#CCC(c1ccccc1)c1ccccc1	3.2	-5.4	-0.3	17	-12	-0.5	3	7
CCN1CCN(Cc2nnc(-c3ccccc3)o2)CC1	1.5	-0.2	0.5	-12	4	0.8	-5	4
COc1ccc(C(=O)NCc2nnc(SCC(=O)NCc3ccco3)o2)cc1	3.8	2.0	-1.3	-17	-4	-0.4	-2	10
Cc1cccc(C(=O)N2CCCC(CCC(=O)N3CCN(c4ccccn4)CC3)C2)c1C (configuration not stated)	2.8	2.8	-0.4	16	-5	-5.9	1	11
O=C(CCCCCNC(=O)c1ccccc1)N/N=C/c1ccc(F)cc1	0.9	-2.7	1.5	-3	-3	·	-2	-3
O=C(O)c1cc(-c2ccco2)nc2ccccc12	-2.8	5.8	0.9	-11	11	i	-8	-6
COc1ccccc1NC(=O)c1ccc(NC(=O)COC(=O)c2cccnc2Cl)cc1	·	0.6	0.2	·	·	-0.8	-6	-6
C[C@@H]1NC(=O)N(CCCn2ccnc2)C1=O	0.0	-1.6	0.7	-10	-6	-0.9	-7	-3
O=C(CN1C(=O)CCC1=O)Nc1nc(-c2cccs2)cs1	-1.3	2.7	0.3	-10	0	-2.7	-3	-5
CCOC(=O)c1cnc2ccc(C(=O)OC)cc2c1NCCc1ccc(OC)c(OC)c1	-0.6	-3.3	-0.2	23	1	4.6	2	5

Ordered by value in Beta2AR agonist (rising): some entries from above
molecule	Beta2AR agonist
COc1ccccc1NC(=O)c1ccc(NC(=O)COC(=O)c2cccnc2Cl)cc1	-6
COC(=O)c1ccc(OC(=O)CCN2c3ccccc3Sc3ccccc32)cc1	-5
C[C@@H]1NC(=O)N(CCCn2ccnc2)C1=O	-3
CCn1c(SCc2nc3ccccc3c(=O)[nH]2)nnc1-c1ccncc1	-2
CCN1CCN(Cc2nnc(-c3ccccc3)o2)CC1	4

Other results
SMILES	RanGTP-Imp inh	LANA-H2A inh	A1 inh	T cruzi repl	Calb FLC	UCH37 DUB inh	Beta apoptosis	Beta2AR agonist
O=C(Nc1ccc(Cl)cc1)N1CCCN(Cc2ccc(F)cc2)C1	3.2	-3.0	-0.5	49	?	3.6	2	36
CS(=O)(=O)N(CC(=O)NC1CCCCC1)c1cccc(Cl)c1	-3.8	6.4	0.3	-9	-5	5.5	-2	4
O=C(CN1C(=O)c2ccccc2C1=O)Nc1cccc2cccnc12	5.4	-1.1	0.8	0	0	3.5	·	-3
CCS(=O)(=O)N1CCN(C2CCC(C)CC2)CC1 (configuration not stated)	0.3	0.9	0.0	-8	-1	2.4	-4	-9
Cc1ccc(-c2cc(C(=O)N3CCC(C)CC3)c3ccccc3n2)cc1	·	-1.6	-0.8	·	38	-4.3	0	3
Cc1c(-n2cccc2C=O)cccc1[N+](=O)[O-]	-1.0	2.5	0.0	-4	17	1.5	-7	2
CC(=O)Cc1nsc(NC(=O)c2ccco2)n1	1.4	-2.7	1.7	-7	1	3.5	1	-1
CC(=O)Nc1ccc(Nc2ncnc3c2nnn3Cc2ccccc2Cl)cc1	-0.5	·	·	-7	0	-20	·	17
Cc1ccc(C(=O)N/C(=C\c2ccc(-c3cc(Cl)ccc3Cl)o2)C(=O)NCc2cccnc2)cc1	1.2	0.0	2.0	41	35	-4.1	-3	-3
C=CCSC1=N/C(=C\c2cc(OCC)c(OC(C)=O)c([N+](=O)[O-])c2)C(=O)S1	-1.2	-8.9	-0.4	1	6	6.4	-4	6
COc1ccc(NC(=O)CSc2nc3n[nH]c(C)c3c(=N)n2-c2ccc(Cl)c(C)c2)cc1OC	1.4	1.4	-1.0	13	22	-16	66	7
O=C(Cn1ccc(NC(=O)OCc2ccccc2)nc1=O)NCCCn1ccnc1	·	4.6	-0.5	·	·	4.0	-5	-4
Nc1c(Cl)cc(-c2cn(CCC(=O)O)c(-c3ccc(Cl)nc3)n2)cc1Cl	·	14	0.5	·	·	0.0	4	-3
Cc1[nH]c2ccccc2c1CN1CCc2ccccc2C1	1.7	4.2	-0.1	51	-39	1.4	9	7
O=C(O)c1[nH]c2ccccc2c1C(c1ccccc1)c1c(C(=O)O)[nH]c2ccccc12	-6.5	-5.9	-0.6	-2	2	5.8	·	4
Cn1c(SCC(=O)Nc2nccs2)nnc1-c1ccco1	5.3	-2.0	-0.9	-12	-3	6.0	-1	-17
COc1ccc(-c2coc3cc(O)ccc3c2=O)cc1OC	3.7	0.4	-4.3	-6	4	-39	-5	-2
COc1nc2ccccc2c(=O)n1OCC(C)C	3.5	-2.5	0.5	-3	24	3.2	-3	5
Oc1ccc(C[C@@H]2CNC(=S)N2CCc2cc(C(F)(F)F)cc(C(F)(F)F)c2)cc1	-2.0	4.6	0.0	16	-24	-1.4	0	-10
O=C(c1cc([N+](=O)[O-])cc([N+](=O)[O-])c1)N1CCCc2ccccc21	1.3	-1.9	0.8	73*	72	1.2	-4	-3
O=C(Cc1c(Cl)cccc1Cl)Nc1ccncc1	-3.2	-2.6	1.6	28	-12	0.2	0	-3
CC(NC(=O)CCCc1nnc2n(C)c(=O)c3sccc3n12)c1ccccc1 (configuration not stated)	5.3	0.2	0.8	-4	-6	0.1	5	-6
CCCSc1nnc(CNS(=O)(=O)c2ccc(C)cc2)n1C	-6.5	-1.0	1.4	-1	6	4.5	-3	3
CCOC(=O)C1CCCN(S(=O)(=O)c2cc3c4c(c2)CCN4C(=O)CC3)C1 (configuration not stated)	4.4	4.5	-0.2	-7	-5	1.5	0	7
COc1cccc2cc(/C(C)=N/Nc3nc(-c4cc(C)ccc4C)cs3)c(=O)oc12	4.9	1.0	0.1	7	16	·	-2	6
COc1cccc(-c2nc(C=O)cs2)c1	·	2.3	0.0	-2	-27	1.0	-3	2
Cc1sc2ncnc(SCC(=O)c3cccs3)c2c1C	6.5	5.7	-7.2	7	-7	2.6	-7	5
O=C(COc1cccc2c1CCN(Cc1ccccc1)C2=O)NCc1ccco1	?	2.6	-0.3	-13	1	1.0	-1	-4

Screens deposited in PubChem by several laboratories.
